Ab BasE inh = inhibitors of Acinetobacter baumannii siderophore enzyme BasE; purified BasE, fluorescence polarization binding displacement; inhibition, % (no concentration beside the values); actives 0.1% (n = 84,000); AID 485350;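 active = both replicates above 25% with normal brightness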;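 also: 0% = negative plate control signal and 100% = positive plate control signal; stock transfer was 100 nL into about 30 µL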
LANA-nucl inh = LANA-nucleosome interaction inhibition; FITC-LANA1-23 / chicken nucleosome fluorescence polarization; active compounds read low; z-score (test concentration not listed); actives 0.3% (n = 51,000); AID 720717;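 active = both repeat wells score below -2 in polarization z-score versus plate sample wells, excluding overly bright wells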;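 also: 100 nL library stock added to about 30 µL; numbers are from one replicate; some results filed as inactive read as strong as hits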
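Assay system: FITC-LANA peptide and chicken nucleosomes; input: 240 nM purified chicken nucleosomes (480 nM peptide binding sites), final; also added: 50 nM FITC-LANA1-23 probe; medium: TEN-BT buffer, pH 7.5; doses: pin-transferred compound, 100 nL; times: 10–45 min, room temperature; technique: fluorescence polarization; replication: duplicates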
* hit, by the source's call; nt = no result given; & = joins results of further samples. Some of the compounds tested. The share of hits here may be higher or lower than overall.

Values run as follows: Ab BasE inh	LANA-nucl inh
COc1cccc(OC)c1C(=O)Nc1ccc(N2CCN(C(C)=O)CC2)c(Cl)c1
  0.8	-0.031
O=C(O)c1nnn(Cc2ccccc2)c1C(=O)O
  -0.3	-1.3
CCCCOc1ccc(C(=O)Nc2ccc(-c3nc4ccccc4o3)c(O)c2)cc1
  -1.7	-0.0095
COc1ccccc1CNC(=O)CCn1c(=O)c2ccccc2n(CC(=O)NCC2CCCO2)c1=O (stereo not given)
  0.6	0.19
CN=C(Cc1ccccc1)C1=C(O)CC(C)(C)CC1=O
  -0.9	nt
CCOC(=O)C1=c2s/c(=C/c3cccs3)c(=O)n2C(N)=C(C#N)C1c1cccs1 (stereo not given)
  2.0	-1.4
Cc1ccc2nc(SCC(=O)c3cc(C)n(C4CC4)c3C)[nH]c2c1
  0.5	nt
CCNC(=O)CSc1n[nH]c(-c2ccc(C)cc2)n1
  0.1	nt
CCCC(=O)Nc1ccc(NC(=O)c2ccc(OC)cc2)cn1
  -0.5	-0.67
COc1ccc(OC)c2nc3c(cc12)CCCCC3
  nt	-0.2
CC1=NN(CCC#N)C(c2ccccc2)C1 (stereo not given)
  -0.3	0.008
O=C(Nc1ccccn1)c1ccc(Cl)s1
  -4.1	3.1
CCOC(=O)c1cnc2c(OC)cccc2c1NCC1COc2ccccc2O1 (stereo not given)
  -1.6	0.34
N#CCSc1nn(-c2ccc(F)cc2)c(=S)s1
  -4.4	nt
Cc1ccc2nc(C)nc(-c3ccccc3)c2c1
  0.8	nt
O=c1c2ccccc2c2ccccc2c(=O)n1Cc1ccccn1
  4.4	nt
O=S(=O)(NCc1ccccc1Cl)c1cccc(S(=O)(=O)N2CCOCC2)c1
  -1.6	-0.92
Cc1sc2nc(CSc3ncnc4sccc34)[nH]c(=O)c2c1C
  -12	nt
O=C(NC1CCN(C(=O)C2CCC2)CC1)C1CCCCC1
  0.8	nt
CN(C)C(=O)CSc1nnnn1-c1ccccc1
  0.5	0.29
N#CC1(c2ccccc2)CCC(NCCCn2cnc3ccccc32)CC1 (stereo not given)
  3.2	nt
CCOC(=O)c1c(C)nn(-c2ncccc2NC(=O)CCC(=O)O)c1C
  2.4	nt
COC(=O)C1=C(O)/C(=C\c2ccc(CNS(=O)(=O)c3ccccc3)o2)N=C1C
  2.6	nt
N#Cc1c(Nc2ccccc2)[nH]c(=O)[nH]c1=O
  2.6	nt
Cc1ccc(C(=O)NC2CCCCNC2=O)cc1 (stereo not given)
  -1.1	nt
O=C(O)C1(Cc2nc3ccccc3s2)CCCC1
  2.2	nt
NC(=O)c1sc2c(c1N)C(c1ccccc1)CC(=O)N2 (stereo not given)
  -0.7	0.75
CC(C)Cn1c(=O)c2ccccc2n2c(CCC(=O)N3CCN(c4ccc(F)cc4)CC3)nnc12
  2.0	0.38
COC(=O)C1=C(NC(=O)c2ccc(C(C)(C)C)cc2)CCS1
  4.3	nt
O=S1(=O)CCn2c(ncnc2=Nc2cccc(C(F)(F)F)c2)N1
  1.7	nt
O=C(c1ccncc1)N1C(=O)c2cccc3cccc1c23
  1.3	-0.046
CCOC(=O)c1cnc2c(c(C)nn2C)c1N1CCC(n2cccc2)CC1
  1.9	0.6
CCc1ccccc1NC(=O)N1CCN(c2nnc(C)c3c(C)n(-c4ccc(C)cc4)nc23)CC1
  -2.2	-0.097
CCc1nnc2sc(-c3ccc(NC(=O)c4cccnc4)cc3)nn12
  3.4	-0.85
O=C(O)CSc1nnc(-c2ccccc2)o1
  1.1	-0.56
Cc1ccc(C(=O)N2CCCN(C)CC2)o1
  1.5	-1.2
NNC(=O)c1n[nH]c2c1CCCC2
  -1.0	0.21
Cc1occc1C(=O)Oc1ccc2c(c1)OCO2
  1.2	nt
COC(=O)c1ccccc1NC(=O)c1cccc(C)c1
  -1.7	-0.94
CSc1nc(/N=C/N(C)C)nn1CCC#N
  -0.5	nt
COC(=O)C(=C/C=C/c1ccccc1)C(=O)OC
  0.6	0.19
c1ccc(N2CCN(CN3CCN(c4ccccc4)CC3)CC2)cc1
  1.7	nt
CN(c1ccccc1)C(c1ccc(F)cc1)c1nnnn1CC1CCCO1 (stereo not given)
  0.6	-0.4
COc1cccc(C(=O)NCc2ccc3c(c2)OCO3)c1
  1.6	nt
CCOC(=O)CS(=O)(=O)c1ccc2ccccc2c1
  2.8	0.44
c1cnc(Oc2ccc3oc4ccccc4c3c2)nc1
  -3.5	nt
O=C(Nc1ccc(OC(F)(F)F)cc1)Nc1cc(-c2ccccc2)[nH]n1
  -1.2	nt
CC(=O)Oc1c(I)c(=O)n(C)c2ccccc12
  0.6	nt
FC(F)(F)Oc1ccccc1C=Nc1ccc(Cl)cc1
  -0.2	nt
CN(Cc1ccccc1)C(=O)COC(=O)C1COc2ccccc2O1 (stereo not given)
  -1.6	nt
Oc1cccc2ccc(Nc3ccc4cccc(O)c4n3)nc12
  2.1	-0.43
CCCN(CC1CC1)C(=O)CSc1nnc(-c2ccco2)n1N
  3.5	nt
C=CCn1c(=N)c(C#N)cc2c(=O)n3ccccc3nc21
  2.4	nt
COc1ccccc1-c1nnc(C2CCN(S(=O)(=O)c3ccc(S(=O)(=O)N4CCCCCC4)cc3)CC2)o1
  -2.0	-0.005
CCOC(=O)c1c(C)oc(=O)c(Br)c1C
  -0.7	nt
Cc1cccc(-c2nc3c(c(=O)[nH]2)Cc2ccccc2O3)c1
  1.0	-0.28
O=C1N=C(N2CCCC2)S/C1=C/c1ccc(-c2ccccc2)o1
  0.6	-0.23
CCS(=O)CCSc1nc2ccccc2s1 (stereo not given)
  -0.6	-0.86
CCCc1cc(C(=O)NCc2ccco2)no1
  1.1	-0.58
O=C(C1CCN(C2=NS(=O)(=O)c3ccccc32)CC1)N1CCc2ccccc21
  1.5	nt

Next section
Values run as follows: Ab BasE inh	LANA-nucl inh
CC1(C)OC(c2ccncc2)OC1(C)C
  0.8	-0.82
COc1cc2[nH]c(=O)n(/N=C/c3ccc(O)c(Br)c3)c(=O)c2cc1OC
  2.4	nt
NC(CC(=O)O)c1ccccc1 (stereo not given)
  1.2	nt
C=CCN1Cc2c(sc3c2CCCC3)N(C(=O)c2ccccc2)C1
  0.7	-0.14
O=C(O)c1ccc2c(c1)no[n+]2[O-]
  3.1	nt
Cc1cc(-n2c(C)cc(C(=O)COC(=O)c3sccc3C)c2C)no1
  -17	nt
COc1ccccc1NC(=O)c1ccc(C(=O)c2ccccc2)o1
  -0.4	-0.21
CC(=O)N1CCN(c2nc(C3CC3)nc3sc4c(c23)CCCC4)CC1
  0.7	0.11
O=C1CCCN2N=C(SCc3cccc(C(F)(F)F)c3)SC2=N1
  1.5	-0.83
CCC1(C)CC(=O)NC1=O (stereo not given)
  0.5&-2.0	-0.88&0.031&-0.41
CCc1nnc(NC(=O)C2CC(=O)N(c3ccccc3)C2)s1 (stereo not given)
  -0.3	0.17
Cc1ccc(C)c(C(=O)CSc2nc3nc(C)cc(C)c3c(=O)[nH]2)c1
  2.5	nt
Cc1ccc(Nc2nnc(SCC(=O)NC(=O)NCc3ccco3)s2)cc1C
  2.5	nt
O=C(Nc1ccccc1Cl)NC1(C(=O)NCc2cccnc2)CCCCC1
  -1.2	0.56
Cc1ccc(F)cc1N1CC(C(=O)O)CC1=O (stereo not given)
  3.8	nt
CCCC(=O)N1CCN(c2ccc(NC(=O)c3ccco3)cc2Cl)CC1
  -4.7	2.6
COc1ccccc1NC(=O)CSc1ccccc1
  2.9	-0.59
Cc1cccc(OCC(=O)OC2CCOC2=O)c1 (stereo not given)
  1.5	nt
C=CCNc1ccc(C(F)(F)F)cn1
  -0.5	0.91
Cn1c(=NC(=O)C2CCN(S(=O)(=O)c3cccs3)CC2)sc2ccccc21
  1.7	nt
CC1(C)CC(=O)C(C=NCCN2CCNC2=O)=C(O)C1
  1.9	-0.33
CN(C)C(CNC(=O)c1oc2ccccc2c1CSc1ncn[nH]1)c1ccco1 (stereo not given)
  -4.5	nt
CC(=O)Nc1cccc(OCc2cc(=O)n3nc(C4CC4)sc3n2)c1
  -2.6	0.7
CC(C)N(CC(N)=O)C(=O)Cc1ccc(Cl)cc1
  1.4	nt
CCCC12CCC(c3ccc(C#N)cc3)(CC1)CC2
  -5.3	nt
Nc1ccc(C(=O)OCc2nc3cc4ccccc4cc3[nH]2)cc1
  1.2	nt
Cc1cc(C(=O)OCc2csc(-c3ccccc3)n2)c(C)o1
  1.8	nt
CCCC(=O)Nc1ccc2oc(-c3ccccc3Br)nc2c1
  -2.7	-0.75
CCOC(=O)c1cc(C(=O)/C=C/N(C)C)on1
  1.6	nt
O=C1CC(Sc2nnc3ccccn23)C(=O)N1CCc1ccccc1 (stereo not given)
  3.9	nt

Nothing new here: entries from further up.
Values run as follows: Ab BasE inh	LANA-nucl inh
CCCC(=O)N1CCN(c2ccc(NC(=O)c3ccco3)cc2Cl)CC1
  -4.7	2.6
COc1ccccc1NC(=O)CSc1ccccc1
  2.9	-0.59

Some values from the list:
For LANA-nucl inh, CC(=O)Nc1cccc(OCc2cc(=O)n3nc(C4CC4)sc3n2)c1 has the entry 0.7
For Ab BasE inh, CCCC(=O)N1CCN(c2ccc(NC(=O)c3ccco3)cc2Cl)CC1 has the entry -4.7
For Ab BasE inh, Cc1cccc(OCC(=O)OC2CCOC2=O)c1 (stereo not given) has the entry 1.5
For Ab BasE inh, CN(C)C(CNC(=O)c1oc2ccccc2c1CSc1ncn[nH]1)c1ccco1 (stereo not given) has the entry -4.5

Continuation.
Values run as follows: Ab BasE inh	LANA-nucl inh
Cc1nc(N)oc1C(O)c1ccccc1 (stereo not given)
  nt	0.59
CC(=O)Nc1ccccc1OCC(=O)c1cc(C)n(Cc2cccs2)c1C
  -0.1	nt
CCCCNC(=O)n1nccc1-c1sc(-c2cccs2)nc1C
  -3.1	1.4
CC(C)(CNC(=O)COc1ccccc1Cc1ccccc1)N1CCOCC1
  2.2	nt
CCCCn1c(=O)[nH]c(=O)c2c1nc(CNc1ccc(Cl)cc1)n2CCC(C)C
  4.4	nt
COc1ccc(OC(=O)c2ccc3snnc3c2)cc1
  1.1	-0.98
COc1ccc(C2=NN(CC(=O)NC3CCCCC3C)C(=O)CC2)cc1 (stereo not given)
  0.3	1
COC(=O)c1noc(C)c1C(=O)/C=C/N(C)C
  7.5	nt
O=C(NCc1ccccc1CN1CCOCC1)C1CC(=O)N(c2cccc3ccccc23)C1 (stereo not given)
  0.9	nt
CCN1/C(=C2/SC(=S)N(CC(=O)O)C2=O)C=Cc2cc(OC)ccc21
  0.8	-0.29
O=C(CN1C(=O)C2CC=CCC2C1=O)Nc1ccc(-c2nnc3n2CCCCC3)cc1 (stereo not given)
  1.6	nt
COC(=O)C12CCC(C)(c3nc4ccccc4nc31)C2(C)C (stereo not given)
  -1.0	-0.38
CCOP(=O)(c1ccccc1)c1ccccc1
  2.8	0.51
C=CCSc1nnc2c(n1)OC(c1ccccc1OCC(=O)O)Nc1ccccc1-2 (stereo not given)
  3.9	nt
Cc1ccc(CNC(=O)Nc2ccccc2)n1C
  -0.6	nt
Cc1nccc(-c2nn(-c3ccc(F)cc3)ccc2=O)n1
  2.1	nt
C=CCSc1nc(N)c(C(=O)Nc2ccccc2C)cc1C(N)=O
  0.3	-1.1
Brc1ccsc1-c1csc(-c2ccncc2)n1
  nt	-1.3
N#Cc1ccc(C#CCOC(=O)Nc2ccc(Cl)cc2)cc1
  -3.5	nt
Cn1c(=NC(=O)c2nc3ccccc3s2)sc2cc(S(C)(=O)=O)ccc21
  1.5	0.56
CCn1c(-c2cccs2)nn(CN2CCN(S(=O)(=O)c3cccs3)CC2)c1=S
  0.8	nt
COc1ccc(C(=O)NC(=Nc2c(C)cccc2C)SC)cc1
  0.1	nt
CCC1(C)NC(=O)N(/N=C/C(C)=C/c2ccccc2)C1=O (stereo not given)
  -4.4	nt
COC(=O)c1ccc(-n2nc(SC)sc2=S)cc1
  3.7	nt
NC1=NC(c2ccccc2)C(C(=O)c2ccccc2)N1 (stereo not given)
  -0.4	nt
Cc1cc(C)n2nc(C(=O)NC(C)(C)C)nc2n1
  0.8	nt
COc1cccc(CN2CCN(C(=O)c3cccs3)CC2)c1
  -4.3	nt
Cc1ccc(CNC(=O)c2cc(=O)[nH]c3ccc(S(=O)(=O)N4CCOCC4)cc23)cc1
  0.3	-0.34
O=C1c2ccccc2-c2nc3ncnn3c(-c3ccccc3Cl)c21
  8.7	0.78
OCC1(CO)CSC(Nc2ccc(F)cc2)=N1
  1.1	nt
O=C(CCCc1ccccc1)Nc1ccc(C(=O)O)cc1
  -0.2	0.67
COc1ccc(-c2cc(C(=O)OCC(=O)N(C)C)c3ccccc3n2)cc1
  2.7	nt
CC1CCC(NC(=O)C2CCCN2S(=O)(=O)c2ccc3c(c2)n(C)c(=O)c(=O)n3C)CC1 (stereo not given)
  -0.4	-0.36
Nc1ncnc2c1ncn2CC(O)CO (stereo not given)
  -0.4	-0.31
O=C(CSCC(=O)Nc1nc(-c2cccs2)cs1)Nc1nccs1
  -0.5	-0.52
O=c1c2ccccc2nnn1CSc1nnc2ccccn12
  1.1	nt
COC(=O)c1cccc(S(=O)(=O)N2CCOCC2)c1
  -1.4	1.5
Cc1cccc(-n2c(Cn3ccc(C)n3)n[nH]c2=S)c1
  3.3	-0.77
COc1cccc(C(=O)NC2CCCC2)c1
  0.1	-0.59
COc1cccc(NC(=O)/C(C#N)=C2\SCC(=O)N2c2ccc(C)cc2)c1
  -3.3	nt
Nc1ccccc1C(=O)NCC(F)(F)F
  2.1	nt

Screening results from PubChem.
